Assay outcomes from PubChem.
AID504770: growth inhibition of E. coli YBA685, primary screen, V. cholerae RctB inhibitors; E. coli YBA685 rctB-dependent plasmid, OD600 growth, 3 h; hits give low values; z-score (concentration not given with the values); 130,000 tested, 0.27% active; AID 504770, 2011;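 active = z-score under -2 on both plates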;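 also: wells of about 30 µL received 100 nL stock; score is relative to mean and SD of the test wells; the first replicate is given; strong numbers were not always called active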
CapD inh: Bacillus anthracis CapD inhibitors, primary screen, biochemical, fluorescence intensity | z-score (concentration not given with the values) | AID 492967, 2010 | 140,000 tested, 0.23% active | purified CapD enzyme, fluorescence intensity read-out; hits give low values; some hits fall short of the stated cut | CapD gamma-glutamyltranspeptidase (Bacillus anthracis Ames Ancestor);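 active = z-score under -4 in either of two replicates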;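 also: stock transfer was 100 nL into about 40 µL; score is relative to mean and spread of the plate; one replicate is shown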
The depositor's hits bear a star; i = inactive; · = not tested or not shown; & = joins results of further samples.

SMILES | AID504770 | CapD inh
Cc1ccc2oc(=O)c3cnn(CC(=O)N(CCC(C)C)Cc4ccco4)c3c2c1 | -0.8 | -0.035
O=c1c2sc(=S)n(Cc3ccco3)c2nc(SCc2ccccc2)n1-c1ccccc1 | 0.65 | 0.035
CCOC(=O)c1c(C)[nH]c(C)c1C(=O)CSc1cccc[n+]1[O-] | -0.45 | ·
Cc1c2c(nc3c(C(=O)NC4CCCCCCC4)cnn13)CCCC2 | 0.55 | 13
O=C(Cc1csc(N2CCOCC2)n1)N/N=C/c1cccc(O)c1 | -0.25 | ·
CCn1c(O)c(N=NC(=O)c2ccc(C)nc2)c2ccccc21 | -1.2 | -0.44
Cc1c(CCC(=O)N2CCOCC2)c(=O)oc2c(C)c(O)ccc12 | 0.4 | 14
CN(C)C(=O)CN(c1ccccc1)S(=O)(=O)c1cc(Cl)ccc1Cl | · | -0.78
Fc1ccccc1-c1nnc2ccc3ccccc3n12 | · | 1.6
CC(C(=O)NCC1CCCCC1)N1CCN(S(=O)(=O)/C=C/c2ccccc2)CC1 (configuration not stated) | 0.25 | ·
CC(=O)Nc1cccc(OCCCN2C(=O)c3ccccc3C2=O)c1 | · | 0.11
O=C(/C=C/c1ccco1)NNC(=O)OCc1ccccc1OC(F)(F)F | · | 0.69
CC1(C)Cc2ccccc2C(CSc2ccccc2C(=O)O)=N1 | -0.3 | -1.5
CCC(=O)c1cc2cc(Cl)cc(Cl)c2oc1=O | -2.3 | -0.19
COc1ccc(N2C(=O)C3C4C=CC(CO)(O4)C3C2=O)c([N+](=O)[O-])c1 (configuration not stated) | · | -0.45
CCOC(=O)C1=C(C(C)C)NC(=O)NC1c1ccc(F)cc1 (configuration not stated) | -0.9 | 0.26
O=C(OCc1ccc([N+](=O)[O-])cc1)C1CCCN1C(=O)OCCc1cccc2ccccc12 (configuration not stated) | · | -0.9
Cc1ccc(C2=N/C(=C\c3cccs3)C(=O)O2)cc1 | 0.1 | 0.46
CCOC(=O)c1oc2ccccc2c1CSc1nc2ccccc2c(=O)n1CC1CCCO1 (configuration not stated) | 0.75 | ·
O=C(Nc1c[nH]c2ccccc12)N1CCOCC1 | -0.35 | ·
CC(C)N1C(=O)CC(Nc2cccc3cccc(N)c23)C1=O (configuration not stated) | 0.2 | ·
O=C(N/N=C/C=C/c1ccccc1)c1cc(C2CC2)[nH]n1 | -1.2 | -0.84
CN(CCO)c1ccc(C(=O)c2ccc(N(C)CCO)cc2)cc1 | 1.5 | -1.4
S=C(NCc1ccccc1)NC1CC1 | 0 | 0.62
CC1(C)c2ccccc2N2CCC(=O)NC21/C=C/c1cccc(Br)c1 (configuration not stated) | · | -1.3
O=C(CCc1cn(Cc2ccc(F)cc2)c2ccccc12)NC1CCCc2ccccc21 (configuration not stated) | 0.4 | 0.47
COC(=O)c1sccc1NC(=O)CSc1ccccn1 | -0.35 | 0.5
O=C(Nc1nnc(-c2ccc(Cl)cc2)s1)C1CCCCC1 | 0.8 | i
C/C(N)=C(/C#N)C(=O)CSc1nc2ccc(Br)cc2c(=O)n1Cc1ccco1 | 0.1 | ·
CCCCn1cnc2c1c(=O)n(CC(=O)Nc1ccc(CC)cc1)c(=O)n2CCC | 0.3 | ·
C/C(=N/NC(=O)CC1=NNC(=O)C1)c1ccc(Br)cc1 | -0.5 | 0.14
CC(Sc1ncn(-c2ccccc2)n1)C(=O)Nc1ccc(Cl)cc1 (configuration not stated) | 0.25 | 0.32
COc1ccc(CCNC(=O)c2sc3nc(C)nc(N4CCOCC4)c3c2C)cc1OC | · | 1.1
CCOC(=O)C1=C(C)NC2=C(C(=O)C(C(=O)OCC)C(c3cccc(OC)c3)C2)C1c1ccc(SC)cc1 (configuration not stated) | · | -0.1
Cc1csc2c(N3CCN(C(=S)NCC4CC4)CC3)ncnc12 | -0.05 | 0.19
O=C(COC(=O)c1n[nH]c(=O)c2ccccc12)NC1CCCCCC1 | -0.8 | ·

Some values from the entries so far:
COC(=O)c1sccc1NC(=O)CSc1ccccn1 @ CapD inh = 0.5
CC1(C)c2ccccc2N2CCC(=O)NC21/C=C/c1cccc(Br)c1 (configuration not stated) @ CapD inh = -1.3
C/C(N)=C(/C#N)C(=O)CSc1nc2ccc(Br)cc2c(=O)n1Cc1ccco1 @ AID504770 = 0.1

(listing goes on)
SMILES | AID504770 | CapD inh
CCOC(=O)c1c(C)[nH]c(C)c1C(=O)COc1cc(C)nc(C(C)C)n1 | -1.4 | ·
CCC(C)NC(=O)c1cc(-c2ccccc2O)no1 (configuration not stated) | 0.55 | 0.03
CSc1sc(C(=O)NNC(=O)OCC(Cc2ccccc2)NC(=O)OCc2ccccc2)cc1-c1nc(C)cs1 (configuration not stated) | · | 3.1
O=C1CCCN2N=C(SCC(=O)N3CCCc4ccccc43)SC2=N1 | -0.8 | 0.085
C/C(=C\C(=O)c1ccc(C)o1)Nc1ccc(Nc2ccccc2)cc1 | 2.5 | -2
CCC(CC)C(=O)N1c2ccccc2Sc2ccccc21 | -0.75 | -0.41
COC(=O)c1ccc(COC(=O)c2cccc(C#N)c2)o1 | 1.4 | ·
c1csc(-c2nc(NCCCN3CCOCC3)c3ccccc3n2)c1 | -0.8 | ·
CC(Sc1nc2ccc(C(=O)c3ccccc3)cc2[nH]1)C(=O)O (configuration not stated) | -1.3 | ·
O=C(/C=C/c1c(Cl)nc2sccn12)OCc1cc(=O)n2c3c(sc2n1)CCCC3 | -1.5 | ·
CC(C)c1nc2ccc(Cl)cc2c2c1C(=O)N(CCCN1CCCC1=O)C2=O | · | -0.48
O=C(O)CNC(=O)COc1ccc(Oc2ccccc2)cc1 | -1 | i
O=C(O)CSc1n[nH]c(=S)s1 | · | 0.07
O=S(=O)(c1cccc2nsnc12)N(CCOc1cccc2ccccc12)C1CCCCC1 | · | -1.1
CC1=C(C#N)C2C(/C1=N/O)C2(C)C (configuration not stated) | -0.7 | -0.2
COc1ccc(N=C2SCC(c3ccccc3)=NN2C)cc1 | · | -0.27
COc1ccc(C2OCC3(COC(=O)Nc4ccccc4)C(C)C=C(C)C2C3C)cc1 (configuration not stated) | · | -0.42
CCN1CCN(CCC(=O)Nc2ccc(C)cc2)CC1 | -0.1 | ·
O=C(CSc1nnc(SCc2ccc(Cl)cc2)s1)N1CCc2ccccc2C1 | 1.4 | -0.66
O=C(Nc1ccc2c(c1)OCO2)[C@H](Cc1ccccc1)N1Cc2ccccc2C1=O | -0.15 | 0.62
O=C(OCCN1CCCCC1)C1COc2ccccc2O1 (configuration not stated) | 1 | -0.14
N#C/C(N=Cc1ccccc1)=C(\C#N)NCc1c(F)cccc1Cl | · | -0.13
COc1ccc(COC(=O)C2=C(C)NC(=O)NC2c2ccc(F)c(Br)c2)cc1 (configuration not stated) | · | -0.52
COC(=O)c1ccc(N2CCN(c3c(C)cccc3C)CC2)c([N+](=O)[O-])c1 | · | -0.65

By substructure, those above containing a COOH group.
SMILES | AID504770 | CapD inh
CC1(C)Cc2ccccc2C(CSc2ccccc2C(=O)O)=N1 | -0.3 | -1.5
CC(Sc1nc2ccc(C(=O)c3ccccc3)cc2[nH]1)C(=O)O (configuration not stated) | -1.3 | ·
O=C(O)CNC(=O)COc1ccc(Oc2ccccc2)cc1 | -1 | i
O=C(O)CSc1n[nH]c(=S)s1 | · | 0.07

Further records
SMILES | AID504770 | CapD inh
N#CC1=C(SCC(=O)Nc2ccc(Cl)cc2)NC2=C(C(=O)CCC2)C1c1cccs1 (configuration not stated) | · | 2.9
O=[N+]([O-])c1ccc(C2=Nc3ccccc3NC(c3ccc(F)cc3)C2)cc1 (configuration not stated) | · | -0.8
CC(=O)OC1(c2ccccc2)CCN(C)C2CCCC21 (configuration not stated) | · | -0.24
COc1ccc2cc3cc(C(=O)NCc4ccccn4)oc3nc2c1 | 0.8 | 74
CCN1CCN(C(=O)c2ccccc2NS(C)(=O)=O)CC1 | -0.8 | 0.56
Cc1cc(C(=O)OCc2cc(Cl)cc3c2OCOC3)c(C)o1 | -1 | ·
O=C(OCc1ccco1)c1ccc(-c2ccc(Cl)cc2)s1 | 1.9 | 78
Cc1cccc(NC(=O)c2ccco2)n1 | 1.3 | 0.06
Cc1ccsc1C(=O)OCC(=O)Nc1ccccc1 | -0.15 | 0
O=c1c(-c2ccc(Cl)cc2)c(C(F)(F)F)oc2c(CN3CCOCC3)c(O)ccc12 | · | -0.055
O=C(Cn1c(SCc2cccc(F)c2)nc2ccncc21)NCC1CCCO1 (configuration not stated) | -0.45 | -0.69
CCOC(=O)c1c(NC(=O)C(C)(C)C)sc2c1CCCC2 | 0.05 | 2.5
Cc1cc(-c2nn(C)c(=O)c3ccccc23)cc(C)c1OC(=O)Nc1ccccc1 | · | 0.32
COc1ccc(CCNC(=O)Cn2cnc3c(cnn3-c3ccccc3)c2=O)cc1OC | -3.6* | -0.89
CCCCOc1cccc(NC(=O)CSc2nc(N)nc(SC)c2C#N)c1 | · | -0.15
Clc1ccc2[nH]c3nc4ccccc4nc3c2c1 | 0.2 | ·
NC(=O)c1nnc(Cc2ccc(Cl)cc2)o1 | 0.4 | 0.73
Cc1cccc(-c2noc(CNS(=O)(=O)c3ccccc3)n2)c1 | -0.45 | 0.14
CC1CCN(C(=O)c2ccc3c(Cl)c4c(nc3c2)CCCC4)CC1 | -0.2 | 0.74
Cc1cc(NCCN(C)C)n2nc(C)c(-c3ccccc3)c2n1 | -0.6 | ·
O=C(N/N=C/c1cccnc1)N/N=C/c1cccnc1 | · | -0.65
CC(C)(C)OC(=O)N[C@@H](CCCN=C(N)N)C(=O)O | · | 0.065
Cc1onc(-c2ccccc2Cl)c1C(=O)Nc1ccc(S(=O)(=O)N2CCC(C)CC2)cc1 | 0.45 | 0.7
O=C1Cc2cc(C(=O)CSc3nnc(C4CC4)n3-c3ccccc3)ccc2N1 | 1.2 | ·
COc1cc(C=Nc2ccc(O)cc2)ccc1OC(=O)CC1SC(=O)NC1=O (configuration not stated) | 0 | -0.57
CC(C)CCn1c(=O)c2sccc2n2c(CCCC(=O)NC3CC3)nnc12 | 0.25 | 0.075
Cc1cc(=O)oc2cc(OCC(=O)N(c3ccccc3)C(C)C)ccc12 | -0.1 | ·
Nc1cc(=O)[nH]c(SCC(=O)Nc2ccccc2)n1 | -0.8&0.45 | -0.47&0.08
N#Cc1c(N2CCN(C(=S)NCc3ccccc3)CC2)nc(-c2ccccc2)c2c1CCCC2 | 1.1 | -0.36
Nn1c(Cc2cccc3ccccc23)n[nH]c1=S | -1.1 | 0.07
O=C(Oc1cccc2cccnc12)c1cc(C(F)(F)F)cc(C(F)(F)F)c1 | -3.2* | -0.025
CN(C)CCOC(=O)CCN1C(=O)/C(=C/c2ccccc2Cl)SC1=S | · | -1.9
Cc1c(C)c(C)c(COc2ccc(Cl)cc2Cl)c(C)c1C | · | 0.74
O=C(N/N=C\c1cn(-c2ccccc2)nc1-c1cccnc1)c1ccncc1 | · | 34
CCCN1COc2ccc3c(C)cc(=O)oc3c2C1 | -2 | 99
CC(C)(C)c1ccc(OCc2nc3ccccc3[nH]2)cc1 | -1.1 | 0.045
CCOC(=O)C1(C)C=C(Nc2ccc([N+](=O)[O-])cc2)C(=O)N1c1ccc([N+](=O)[O-])cc1 (configuration not stated) | · | 0.07
CSc1ccc(NS(=O)(=O)c2ccc(-n3cnnn3)cc2)cc1 | -1.4 | -0.03
O=C(NCCOc1ccccc1Cc1ccccc1)c1cccnc1 | -0.9 | -0.44
Cc1cccc(N(C)S(=O)(=O)c2ccc3[nH]cc(C(=O)N4CCN(c5ccccc5)CC4)c(=O)c3c2)c1 | · | 0.52
Cc1nnc(NC(=O)COC(=O)CSc2nc(-c3ccccc3)cc(-c3ccccc3)n2)s1 | · | 1
COc1ccccc1C1/C(=C(/O)c2ccccc2)C(=O)C(=O)N1CC(C)O (configuration not stated) | 1.5 | -0.73
CCOc1cccc2c1OC(c1ccc(OC)c(OC)c1)N1N=C(c3ccc(F)cc3)CC21 (configuration not stated) | · | -0.26
CN1C2CCC1CC(NS(=O)(=O)c1cccc(C(F)(F)F)c1)C2 (configuration not stated) | 0.4 | 0.005
COc1ccc(C2=N/C(=C\C=C\c3ccccc3OC)C(=O)O2)c(Br)c1 | · | -1.4
CC(=O)Nc1ccc2c3c(cc(=O)n2C)-c2ccccc2C(=O)c13 | · | 0
O=C(NCC(c1ccco1)N1CCN(c2ccccc2)CC1)c1ccccc1 (configuration not stated) | 0.75 | ·
CC(=O)Oc1ccc(-c2nc3cc(Cl)ccc3o2)cc1 | -0.55 | 4.2

Among those listed so far, these contain bromine.
SMILES | AID504770 | CapD inh
CC1(C)c2ccccc2N2CCC(=O)NC21/C=C/c1cccc(Br)c1 (configuration not stated) | · | -1.3
C/C(N)=C(/C#N)C(=O)CSc1nc2ccc(Br)cc2c(=O)n1Cc1ccco1 | 0.1 | ·
C/C(=N/NC(=O)CC1=NNC(=O)C1)c1ccc(Br)cc1 | -0.5 | 0.14
COc1ccc(COC(=O)C2=C(C)NC(=O)NC2c2ccc(F)c(Br)c2)cc1 (configuration not stated) | · | -0.52
COc1ccc(C2=N/C(=C\C=C\c3ccccc3OC)C(=O)O2)c(Br)c1 | · | -1.4

Later entries.
SMILES | AID504770 | CapD inh
COc1cc(OC)cc(N2C(=O)CSCC2=O)c1 | -0.85 | -0.27
CCc1ccc(C2NCCc3cc4c(cc32)OCCO4)cc1 (configuration not stated) | -0.45 | 0.76
CCCCCn1c(CCC(=O)Oc2ccccc2OC)nc2c1c(=O)[nH]c(=O)n2CCCC | 0.2 | ·
FC(F)(F)c1nnc2scc(-c3ccc(Cl)cc3)n12 | 0.55 | 0.05
COc1ccc(CNC(=O)c2cc3nc(-c4ccc(OC)c(OC)c4)cc(C(F)(F)F)n3n2)cc1 | · | 1.6
c1ccc(-c2nnc(NC3=NCCC3)o2)cc1 | -1 | ·
Nc1ccc(Sc2ccc3ccccc3c2Cl)c(Cl)c1 | 0.4 | -1.5
CCCS(=O)(=O)c1c(S(=O)(=O)CCC)c2ccccn2c1C(=O)N/N=C/C=C/c1ccccc1 | · | -0.26
